Screening data (PubChem BioAssay)
AmpC nodet inh: inhibitors of E. coli AmpC beta-lactamase without detergent. P00811. AmpC nitrocefin hydrolysis, absorbance 480 nm, no detergent; potencies from a single point are estimates. actives 1.8% (n = 71,000). Potency, µM (highest dose often 28.7 µM), for the others: at the top dose activity change, negative = inhibition; active = falling curve, for most hits resting on a single point; inconclusive = weak or doubtful change; inactive = flat or rising curve; also: % of control where 0% means no effect; about half of the hits show no inhibition at the top dose; a quarter of the inactives give rising signals
Target sequence (P00811 whole entry, looked up): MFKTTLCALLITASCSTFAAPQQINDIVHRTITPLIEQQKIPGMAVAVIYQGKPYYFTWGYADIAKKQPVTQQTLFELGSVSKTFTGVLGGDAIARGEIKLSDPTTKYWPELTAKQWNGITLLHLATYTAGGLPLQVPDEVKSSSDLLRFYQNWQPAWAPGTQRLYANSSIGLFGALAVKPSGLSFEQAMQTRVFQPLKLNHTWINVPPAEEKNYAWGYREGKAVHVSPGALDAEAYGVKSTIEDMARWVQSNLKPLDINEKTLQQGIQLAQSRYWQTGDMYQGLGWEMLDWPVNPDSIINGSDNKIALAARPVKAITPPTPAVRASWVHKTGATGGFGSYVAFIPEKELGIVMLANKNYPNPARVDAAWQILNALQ
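Enzyme, pH 7.0 phosphate. Compound titrations were pre-incubated with AmpC for 15 min at room temperature before nitrocefin (stock 800 uM) addition; product formation was recorded at 480 nm every 20 s for 4 min.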
Active calls of the source: *; [ ] = remark or other dose. Potency is read from the fitted curve at half-maximal effect. Not all compounds are listed, so the mix of outcomes need not match the whole.

SMILES	AmpC nodet inh
Cc1[nH]nc2c1C1(CCN(C(=O)c3ccccc3)CC1)C(C#N)=C(N)O2	-2%
CCCCc1nc2ccccc2c(=O)n1NC(=O)c1c(O)c2c(n(CC(C)C)c1=O)CCCC2	17%
Cn1c(NCc2ccco2)nc2c1c(=O)n(Cc1ccc(Br)cc1)c(=O)n2C	47%
Cc1cc(C)n(-c2nnc3n2N=C(c2c[nH]c4ccccc24)CS3)n1	19%
COC(=O)N1CCC2(CCN(C(=O)Nc3cccc(F)c3)CC2)CC1	117%
CCCCn1cc(SCC(=O)O)c2ccccc21	-9%
CC(C)OC(=O)c1ccc(N2C(=O)C3CC=CCC3C2=O)cc1 (stereo unspecified)	15%
CCc1cccc(NC(=O)CN(c2ccc(OC)cc2)S(=O)(=O)c2c(C)n[nH]c2C)c1	65%
Clc1ccc(CCNc2ncnc3nc[nH]c23)cc1	4%
Cc1c(NC(=O)CSc2nc3ccccc3n2C)c(=O)n(-c2ccccc2)n1C	38%
Cc1nn(-c2ccccc2)c2c1CC1(C(=O)N(C)C(=O)N(C)C1=O)C1CCCCN21 (stereo unspecified)	96%
COc1ccc(Nc2ncnc3c2cnn3-c2ccccc2)cc1OC	25%
CCN1CCN(Cc2c(O)c(Cl)cc3c(C)cc(=O)oc23)CC1	2%
O=C(Nc1ccc(N2CCOCC2)c(Cl)c1)c1cccc(F)c1	3%
Cc1cc2ncn(C3CC(=O)N(Cc4ccccc4)C3=O)c2cc1C (stereo unspecified)	64%
Cc1ccc(-c2noc(-c3cccs3)n2)cc1	-3%
COC(=O)C1CCN(Cc2cc(=O)oc3cc(OC)ccc23)CC1	4%
CCOC(=O)C1(C(F)(F)F)N=C(N(C)C)OC(N(C)C)=N1	-6%
COc1cc(C(=O)OCC(=O)NC2CCCC2)cc(NC(=O)c2ccco2)c1OC	51%
Cc1cnc(NC(=O)CSc2nnc(Cc3ccccc3)n2C)s1	10%
CCCSc1nc2c(cnn2-c2ccc(C)cc2)c(=O)[nH]1	-2%
COc1cc2cc(C)c3nnc(SCC(N)=O)n3c2cc1OC	0%
CCOC(=O)c1[nH]c2cc3c(cc2c1CCCN1C(=O)c2ccccc2C1=O)OCCO3	26%
O=C(CC1SC2=NCCN2C1=O)Nc1ccc(Cl)cc1 (stereo unspecified)	4%
COc1ccccc1NC(=O)c1ccccc1SC	5%
Cc1ccc(-c2nnc(CSc3nnc(C)s3)o2)cc1	1%
C=CCn1c(C)cc(C(=O)COC(=O)COc2ccccc2C#N)c1C	23%
N#Cc1nc(-c2ccc(OCc3ccccc3Cl)cc2)oc1NCCCn1ccnc1	85%
COc1ccc(CCNC(=O)CSc2nnc(CNC(=O)c3cccs3)o2)cc1OC	9%
COc1ccc(CNC(=O)C2CCCN(S(=O)(=O)c3cc(C)ccc3OC)C2)cc1 (stereo unspecified)	50%

Retrieved by compound from the list above:
SMILES	AmpC nodet inh
Cc1cnc(NC(=O)CSc2nnc(Cc3ccccc3)n2C)s1	10%
CCCCc1nc2ccccc2c(=O)n1NC(=O)c1c(O)c2c(n(CC(C)C)c1=O)CCCC2	17%
CCCCn1cc(SCC(=O)O)c2ccccc21	-9%
COc1ccc(Nc2ncnc3c2cnn3-c2ccccc2)cc1OC	25%

Additional records
SMILES	AmpC nodet inh
CC(=O)Cc1nsc(NC(=O)c2ccc(Br)o2)n1	-16%
CN(C(=O)COc1nnc(-c2cccs2)c(-c2cccs2)n1)c1ccccc1	31%
CCOC(=O)c1ccc2[nH]c(C)cc(=O)c2c1	-5%
CCC(=O)Nc1cc(NC(=O)CSc2ncc(-c3ccc(F)cc3)n2Cc2ccco2)ccc1C	70%
CC1=CC(C)C(COC(N)=O)(COC(N)=O)C(C)C1 (stereo unspecified)	9%
Cc1ccnc(NC2c3ccccc3C(=O)N2Cc2ccccc2Cl)c1 (stereo unspecified)	4µM*[single pt active]
Clc1ccc2c(c1)N=C(N1CCNCC1)c1ccccc1N2	37%
CCN1C(=O)c2ccccc2S(=O)(=O)c2ccc(C(=O)NCc3cccnc3)cc21	30%
O=C(c1ccco1)N1CCN(C(=O)c2snc3ccc(Cl)cc23)CC1	20%
CCOC(=O)C1CCN(C(=O)c2ccc(OCC)c(OCC)c2)CC1	28%
C=CCCCOc1ccc(C(=O)O)cc1	0%
Cc1cccc(-c2noc(C3CCCCC3)n2)c1	14%
Cn1c(=O)n(CCN2CCOCC2)c(=O)c2c1nc1n2CCN1c1ccc(Oc2ccccc2)cc1	86%
CCOC(=O)c1[nH]c(C)c(C(=O)OCc2c(C)noc2C)c1C	36%
CN(C)c1ncc2nc(-c3ccc(Cl)cc3)c(=O)n(Cc3cccs3)c2n1	0%
O=C1CCCC2=C1C1(CCCCC1)N=C(Nc1nc3ccccc3o1)N2	25%
O=C(COc1ccccc1)Nc1ccccc1N1CCCCC1	6%
O=C(CSc1nnc(Cn2nnc(-c3ccccc3)n2)n1-c1ccccc1)Nc1ccccc1	25%
CC(=O)[C@@]1(O)CC[C@H]2[C@H]3C[C@@H](C)C4=CC(=O)C=C[C@]4(C)[C@@]3(F)[C@@H](O)C[C@]21C	22%[12.8 µM]
CNC(=O)c1ccc(-c2sc3nc(N4CCOCC4)c4c(c3c2N)CCCC4)o1	141%
CCOC(=O)N1CCN(C(=O)COc2ccc(S(=O)(=O)Nc3ccc(OCC)cc3)cc2)CC1	70%
Cc1nnc(NC(=O)CSC2CCCCC2)s1	-8%
C[C@@]12CC[C@H]3[C@@H](CC[C@]4(O)C[C@H](O)CC[C@@]34C=O)[C@]1(O)CC[C@@H]2C1=CC(=O)OC1	-4%[12.8 µM]
COC(=O)C(C)n1cnc2c(nnn2-c2ccc(OC)cc2)c1=O (stereo unspecified)	-8%
Cc1ccc(NC(=O)CSc2nnc(-c3ccccc3Br)o2)cc1C	-19%
COc1ccc2[nH]cc(CCNc3nc(-c4cccc(NS(C)(=O)=O)c4)nc4ccccc34)c2c1	-20%
O=C(CSc1nnc(CNC(=O)c2cccs2)o1)NC1CCCC1	-3%
CCOC(=O)CCc1c(C)nc2ncnn2c1C	0%
N#CC(=NCCO)C1=C(O)c2ccccc2C1=O	-3%[5.75 µM]
Cc1cc(NC(=O)c2ccc(N(C)S(=O)(=O)c3ccccc3)cc2)no1	6%
CC(C)CC(c1nnnn1Cc1ccco1)N1CCN(c2cccc(Cl)c2)CC1 (stereo unspecified)	7%
COc1ccccc1N1CCN(C(=O)C(Cc2ccccc2)NC(=O)C2CCCCC2)CC1 (stereo unspecified)	100%
CC(C)=C1C2C=CC1C(C(=O)Nc1cc(C)ccc1C)C2C(=O)O (stereo unspecified)	0%
CCOC(=O)N1CCC(NC(=O)CCCN2C(=O)CSc3ncccc32)CC1	5%
COC(=O)[C@H](CCSC)NC(=O)Nc1ccc(C)cc1C	3%
Cc1cc(C)cc(NC(=O)CSc2nnc(-c3ccccc3C)o2)c1	-7%
N=c1n(CCN2CCOCC2)c2ccccc2n1CC(=O)c1ccc(Cl)c(Cl)c1	112%
Cc1csc2c(C#N)c(=O)c3c(n12)CCC3	2%
COc1ccc(-c2nnc(SC(C)C(=O)Nc3ccc4c(c3)OCCO4)o2)cc1 (stereo unspecified)	10%
Clc1ccc(CSCCc2ccncc2)cc1Cl	4%[5.75 µM]
Cc1cc(C)c2c(N)c(S(=O)(=O)c3ccccc3)sc2n1	18%
CCOCCOC(=O)COc1ccc(N2C(=O)c3ccccc3C2=O)cc1	40%
Cc1nc(N)sc1-c1csc(N(C)c2ccc(O)cc2)n1	-16%
Cc1cc(C)nc(NS(=O)(=O)c2ccc(NC(=O)CCC3COc4ccccc4O3)cc2)n1 (stereo unspecified)	-5%
CCOC(=O)c1ccc(N2C(=O)CC(SCC(N)C(=O)OCC)C2=O)cc1 (stereo unspecified)	28%
O=S(=O)(NCc1csc(-c2cccnc2)n1)c1cccs1	-2%
Cc1sc2ncnc(N3CCCCC3C)c2c1C (stereo unspecified)	23%
COc1ccc(CSc2n[nH]c(C)n2)cc1Br	4%
Cc1ccc(C2CC(=O)NC3=C2C(=O)CCC3)cc1Br (stereo unspecified)	-7%
CC(=O)c1c(N2CCN(C(=O)c3ccco3)CC2)nc(=S)n(-c2ccccc2)c1C	13%
COc1ccc(C(=O)O)cc1S(=O)(=O)N(C)CCc1cccnc1	-3%
O=C(O)c1ccccc1C(=O)Nc1cc2c(cc1Br)-c1ccccc1C2=O	-21%[5.75 µM]
CCCCCn1c(CN2CCN(C(=O)OCC)CC2)nc2c1c(=O)[nH]c(=O)n2C	56%
CC(=O)N1CCN(Cc2cc(=O)n3cc(Cl)c(C)c(Cl)c3n2)CC1	10%
CCOc1ccccc1N1C(=O)c2ccc(C(=O)O)cc2C1=O	7%
COc1ccccc1-c1nc(N2CCOCC2)c2ccccc2n1	7%
O=C(c1cc(-c2ccccc2)on1)N1CCN(C(=O)c2ccco2)CC1	58%
c1cc(CNC2=NCCCCC2)ccn1	-11%
CCOc1cccc(NC(=O)C2CC(=O)N(C)C(=Nc3ccccc3)S2)c1 (stereo unspecified)	74%
O=C1CN(C(=O)COC(=O)COc2ccc3c(c2)CCC3)c2ccccc2N1	31%

Following part.
SMILES	AmpC nodet inh
Cc1cnc(C(=O)N2CCN(S(=O)(=O)c3ccc4ccccc4c3)CC2)cn1	101%
Cc1cc(NC(=O)c2cc3ncc(Br)cn3n2)no1	2%
COc1ccccc1NC1=NCC(=O)N1Cc1ccccc1	-2%
COc1ccc(-c2cc(C(F)(F)F)n3ncc(C(=O)NCC4CCCO4)c3n2)cc1 (stereo unspecified)	22%
COc1cc2cc(CN(Cc3nnnn3Cc3ccccc3)CC3CCCO3)c(=O)[nH]c2cc1OC (stereo unspecified)	96%
CCCC(c1nnnn1Cc1cccs1)N1CCN(c2ccc(OC)cc2)CC1 (stereo unspecified)	70%
COc1cc(Br)cc(/C=N/c2ncn[nH]2)c1O	4%
Nc1nc2n(c1C(=O)c1ccccc1)CCC2	-10%
O=S(=O)(c1ccc(S(=O)(=O)N2CCCC3(CCCCC3)C2)cc1)N1CCCCC1	11%
CCN(CC)C(=O)c1cn(C)c2ccc(S(=O)(=O)N(CC)CC)cc2c1=O	-3%
C1=C(CCNC2=NCCCCC2)CCCC1	2%
Cc1c(NC(=O)c2ccccc2F)c(=O)n(-c2ccccc2)n1C	-6%
O=C(O)COc1cccc(-c2ocnc2-c2nc(-c3ccccc3)c(-c3ccccc3)o2)c1	-3%
O=C(c1cnn2cccnc12)N1CCN(c2ccccc2)CC1	7%
O=C(Cn1nc(Cl)nc1Cl)c1cc2ccccc2oc1=O	-18%
CCO/C([O-])=N/c1c[n+](N2CCOCC2)no1	-12%[12.8 µM]
COCCn1c(SCc2nc3ccccc3s2)nc2ccccc21	49%
Cc1ccc(-n2c(=O)cc(N3CC(C)CC(C)C3)[nH]c2=O)cc1 (stereo unspecified)	13%
COC(=O)N1CCC[C@@]2(CCN(c3ccccc3)C2)C1	58%
COc1ccc(Cc2nnc(SCC(=O)N3CCN(c4ccccc4)CC3)o2)cc1	35%
COCC(=O)N1CCC[C@@]2(CCN(c3ccccc3)C2)C1	86%
Cc1nn(-c2ccccc2)c(Cl)c1C(=O)N1CCN(c2ncnc3c2cnn3-c2ccccc2)CC1	134%
O=C(CSc1nnc(-c2ccco2)n1Cc1ccco1)NCc1cccs1	2%
Cc1ccc(N(CN2CCCC2=O)C(=O)c2ccc(C)c(C)c2)cc1	102%
CCOC(=O)CSC1=C(C#N)C(c2ccccc2Cl)C(C(=O)OC)C(=O)N1 (stereo unspecified)	12%
COC(=O)c1ccc(NC(=O)c2ccco2)cc1	13%
CC(C)(C)NC(=O)C(c1ccc(I)cc1)N(CCN1CCOCC1)C(=O)CCCNC(=O)c1ccccc1 (stereo unspecified)	132%
Cc1cc(N2CCCC2=O)cc(C)c1S(=O)(=O)NCCOc1ccccc1	8%
CCC(C)Sc1nc2c(cnn2-c2ccc(C)cc2)c(=O)[nH]1 (stereo unspecified)	-4%
CC(C)C[C@@H](CC(=O)N[C@@H](CCC(=O)O)CC(=O)O)NC(=O)[C@@H]1CNCC[C@H]1NC(=O)C[C@@H](NC(=O)C[C@H](Cc1ccccc1)NC(=O)[C@@H]1CCCC[C@H]1N)C(C)C	98%
COc1ccc(NC(=O)c2cc(-c3ccc(OC)c(OC)c3)on2)cc1OC	9%
O=C(Cn1nc(-c2ccccc2F)ccc1=O)NCc1ccc2c(c1)OCO2	4%

Given as labelled records: part of the list above.
Compound: Cc1nn(-c2ccccc2)c(Cl)c1C(=O)N1CCN(c2ncnc3c2cnn3-c2ccccc2)CC1
  AmpC nodet inh: 134%
Compound: O=C(CSc1nnc(-c2ccco2)n1Cc1ccco1)NCc1cccs1
  AmpC nodet inh: 2%
Compound: Cc1ccc(N(CN2CCCC2=O)C(=O)c2ccc(C)c(C)c2)cc1
  AmpC nodet inh: 102%
Compound: CCOC(=O)CSC1=C(C#N)C(c2ccccc2Cl)C(C(=O)OC)C(=O)N1 (stereo unspecified)
  AmpC nodet inh: 12%
